CSC inhib: cancer stem cell viability inhibitors, primary screen, luminescence. AID 2717, 2010. inhibition, % at 7.5 µM. cancer stem cell-like cells viability. 1.1% of 300,000 active;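 active = mean at 75% or more and at least half the replicates too; inconclusive = mean and replicates disagree; tested in HMLE shEcad cells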;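 also: 0% = median of negative and 100% = median of positive control wells; the first replicate is given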
UUG fidelity: modulators of yeast start codon fidelity, primary screen, whole organism, S. cerevisiae, single point, plate reader; S. cerevisiae UUG-firefly luciferase reporter, luminescence/redox ratio; activity score, % at 18.7 µM; 0.13% of 350,000 active; AID 602363, 2012;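 active = replicate mean at a twofold rise or more, about +100% in these data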;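 also: firefly luciferase made from a UUG start codon reports start codon fidelity; reporter light over untreated wells divided by growth signal over untreated wells; some hits fall short of that in this replicate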
Env fusion inh: inhibitors of HIV-1 Env-driven cell-cell fusion, primary screen, HeLa-JRFL effector, CEM21 target cells, luciferase; inhibition, % at 12.3 µM; 1.1% of 360,000 active;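 active = mean replicate inhibition score of at least 50 and every replicate individually at or above 50; inconclusive = only one of the two criteria met; inactive = mean below 50 and not all replicates reaching 50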;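 also: 0% = plate neutral controls and 100% = maraviroc near 300 nM; one replicate is shown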
Rce1 inh: yeast Rce1p protease inhibitors, primary screen, biochemical, fluorescence, cell-free homogeneous; yeast membranes, quenched prenylated peptide cleavage fluorescence; calls only; 0.27% of 290,000 active; AID 2563, 2010;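 active = fall in fluorescence gain of 50% or more versus controls, with final raw signal at or below 3038400; inconclusive = same 50% fall but final raw signal above 3038400; inactive = fall in fluorescence gain under 50%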;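 also: plate controls were neutral control wells for no effect and wells lacking membranes for full effect; tested at 10 µM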
PABP polyA inh: PABP poly(A) RNA binding inhibitors, primary screen, biochemical, fluorescence polarization, uHTS. Polyadenylate-binding protein 1 (Homo sapiens), P11940. inhibition, % at 35 µM. 1% of 290,000 active. AID 2014, 2009;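 active = 50% or more with normal probe brightness, or confirmed in later tests; inconclusive = above 50% with abnormal brightness, or retests that disagree; inactive = below 50% or failed in later tests; about a fifth of its hits are not listed in these tables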;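 also: calls also rest on retests at 20 µM and on dose response follow-up; controls were probe without protein and protein plus probe with vehicle; some compounds called inactive have numbers as strong as hits; many hits fall short of the cut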
Target sequence (P11940 whole entry, looked up): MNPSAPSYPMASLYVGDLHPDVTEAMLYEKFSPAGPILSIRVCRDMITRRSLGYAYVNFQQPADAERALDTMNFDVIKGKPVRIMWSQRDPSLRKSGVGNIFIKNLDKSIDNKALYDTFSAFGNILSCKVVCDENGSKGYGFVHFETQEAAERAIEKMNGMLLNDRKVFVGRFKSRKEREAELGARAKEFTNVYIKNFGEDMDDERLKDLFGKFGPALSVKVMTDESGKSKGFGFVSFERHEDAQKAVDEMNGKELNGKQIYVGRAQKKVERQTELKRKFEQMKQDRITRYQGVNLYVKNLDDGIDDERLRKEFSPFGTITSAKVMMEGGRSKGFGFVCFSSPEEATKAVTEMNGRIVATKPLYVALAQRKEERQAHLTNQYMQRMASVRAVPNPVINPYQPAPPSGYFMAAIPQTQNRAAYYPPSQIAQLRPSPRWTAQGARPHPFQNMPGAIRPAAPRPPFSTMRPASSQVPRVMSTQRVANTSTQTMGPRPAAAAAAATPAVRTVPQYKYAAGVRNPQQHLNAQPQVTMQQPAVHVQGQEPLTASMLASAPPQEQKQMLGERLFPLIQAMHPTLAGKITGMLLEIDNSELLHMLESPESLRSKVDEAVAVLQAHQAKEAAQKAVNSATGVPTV
eIF4H inh: human eIF4H binding inhibitors, primary screen, translation initiation inhibitor project, biochemical, uHTS, fluorescence polarization | eIF4H fluorescence polarization binding assay | inhibition, % at 35 µM | Eukaryotic translation initiation factor 4H (Homo sapiens), Q15056 | 0.94% of 290,000 active;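 active = 50% or more with normal probe brightness, or confirmed in later tests; inconclusive = above 50% with abnormal brightness, or retests that disagree; inactive = below 50% or failed in later tests; about a fifth of its hits are not listed in these tables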;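 also: calls also rest on retests at 20 µM and on dose response follow-up; 0% = protein and probe with vehicle and 100% = probe without protein; strong numbers were not always called active; many hits fall short of the cut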
MT1-MMP act inh: blockers of MT1-MMP proenzyme processing, primary screen, HT1080 RFP-PRO-GFP cells, GFP/RFP fluorescence. GFP/RFP ratio fluorescence, overnight; percent of plate control window, DMSO zero. GFP/RFP ratio change, % at 20 µM. 0.061% of 360,000 active;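 active = GFP/RFP ratio change of at least 30% with cell ATP level not reduced by more than half and red fluorescence within 50% of control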; also: strong numbers were not always called active
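Assay system: HT1080 RFP-PRO-GFP cells | Dosing: 20 µM single dose, 1% DMSO | Incubation: Cells overnight before dosing, compound overnight, 37 °C, 5% CO2 | Evaluation: GFP/RFP fluorescence ratio | Control set: DMSO-only wells and HT1080 RFP-L50D-GFP cell wells as references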
eIF4H inh retest: also measured in eIF4H inh; calls as there; inhibition, %; compound at 20 µM; confirmation average;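 mean of two retest wells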
PABP polyA inh retest: recorded beside PABP polyA inh, whose call it bears; inhibition, %; compound at 20 µM; confirmation repeats;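 mean of two retest wells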
MT1-MMP act inh RFP: also measured in MT1-MMP act inh; calls as there; RFP signal change, %; measured here: RFP expression control read;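 0 = vehicle wells; hits needed this value within 50% of zero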
Starred values were filed as active, the others as inactive; i = inactive; ? = inconclusive; nt = no result given.

SMILES	CSC inhib	UUG fidelity	Env fusion inh	Rce1 inh	PABP polyA inh	eIF4H inh	MT1-MMP act inh	MT1-MMP act inh RFP	others
N#Cc1c(N)nc2c(c1-c1ccc(Br)s1)CCCC2	-12	-13	17	i	28	-6	-2	2
COC(=O)CCCC1=CC2=C(c3ccccc3)C(=O)C(C)(OC(=O)C3CCCC3)C(=O)C2=CN1C1CC1 (configuration not stated)	-1	-4	-11	i	28	20	-1	4
Cc1ccc(NC(=O)CN2CCc3ccccc3C2)cc1C	-20	-7	5	i	-7	-18	-2	-6
COc1ccc2c(CN3CCCCCCC3)cc(=O)oc2c1	nt	-3	-11	nt	nt	nt	2	5
COc1ccc(CN2C(=O)c3cccnc3C2=O)cc1S(=O)(=O)NCc1ccco1	-15	-3	5	i	4	-7	1	5
CC(NC(=O)c1ccc(S(=O)(=O)Nc2ccccc2)cc1)c1ccc(S(N)(=O)=O)cc1 (configuration not stated)	12	5	-3	nt	nt	nt	-1	-1
O=C(COC(=O)c1cc(S(=O)(=O)N2CCOCC2)ccc1Cl)NC1CCCCC1	nt	-25	-2	nt	nt	nt	-3	2
O=C(O)c1ccc(N=Cc2c(O)ccc3ccccc23)cc1	-20	-24	4	i	3	5	0	7
COc1ccc(S(=O)(=O)NC2CC3CCC2C3)cc1Br (configuration not stated)	-13	-10	-7	i	-2	2	3	0
CCn1cc(/C=C(/C#N)S(=O)(=O)c2ccccc2)cn1	-13	nt	-1	i	7	0	1	2
CC1(c2ccccc2Cl)NC(=O)N(CC(=O)Nc2ccc(N3CCOCC3)cc2)C1=O (configuration not stated)	-10	-22	5	nt	nt	nt	-3	-2
O=C(COC(=O)c1ccc(O)cc1)Nc1ccc2c(c1)OCCO2	-3	-7	nt	nt	nt	nt	6	0
COc1ccc(NC(=O)c2sc(SC)nc2N)cc1	nt	-7	-34	nt	-1	-2	-5	3
CCOc1ccc(-n2c(C)c(C(C)=O)c3cc(OC(C)=O)ccc32)cc1	-3	-19	?	i	4	-5	-13	-12
S=c1[nH]nc(-c2ccco2)n1/N=C/C=C/c1ccccc1	7	-22	5	i	1	-7	-3	-5
O=C(COC(=O)C1CC2C=CC1C2)NCc1ccc(F)cc1 (configuration not stated)	0	-12	-90	i	-9	-2	0	1
O=C1C(Cl)=C(N2CCCCCC2)C(=O)N1c1ccc(Cl)cc1	-14	-16	-2	i	-10	1	0	0
CC(C)c1ccccc1NC(=O)COC(=O)C1(C)CC1(Cl)Cl (configuration not stated)	-9	-10	9	i	-6	2	-2	0
COc1ccc(CNC(=O)CCN2C(=O)c3ccccc3S2(=O)=O)cc1	-10	0	4	i	nt	nt	0	3
O=C(COc1ccccc1)Nc1ccccc1Cl	1	nt	-20	i	6	-3	-1	2
CC(C)C(=O)Nc1cccc(NC(=O)c2cccnc2)c1	-2	-17	22	i	9	-8	1	1
Cc1ccc(S(=O)(=O)N2CCN(S(=O)(=O)N3CCC(C)CC3)CC2)cc1C	-9	-13	9	i	19	22	1	0
Cc1nnc(NC(=O)CSc2nccn2Cc2ccccc2)s1	-7	-18	-6	i	23	7	2	1
O=[N+]([O-])c1ccc(-c2ccc(S(=O)(=O)NCCN3CCCC3)cc2)cc1	-8	nt	19	i	1	-17	2	-4
COCCNC(=O)CSc1ccccc1C(=O)NC1CCSc2ccccc21 (configuration not stated)	-14	-2	-1	i	7	-3	-5	4
O=C1CC(NN2CCCCC2)C(=O)N1c1ccccc1 (configuration not stated)	0	nt	-3	i	6	8	-3	-3
O=C(CCN1C(=O)c2ccccc2C1=O)Nc1ccc(-c2nc3ccccc3o2)cc1	-9	nt	nt	i	-11	-6	0	0
COc1ccc(Cl)cc1NS(=O)(=O)c1ccc(OC)c(OC)c1	-7	-6	-34	i	-4	9	2	0
COc1ccc(C(=O)NC(C)Cn2nc(C)cc2C)cc1OC1CCN(C(C)=O)CC1 (configuration not stated)	-16	23	-10	i	4	7	-4	3
Cc1ccc(CNC(=O)CCc2nnc3ccc(NCCCN4CCCC4=O)nn23)cc1	-1	-10	10	i	6	2	2	1
Cc1csc2ncc(C(=O)Nc3ccccc3F)c(=O)n12	-1	-6	-68	i	0	-4	3	2
O=C(NCc1cccs1)c1cc2c(s1)CCCC2	14	-13	-77	i	0	5	5	2
CCS(=O)(=O)NC(=O)C1(C)CCN1C(=O)Cc1ccc(Cl)cc1Cl (configuration not stated)	nt	-6	-1	nt	nt	nt	3	6
O=[N+]([O-])c1cc(C(F)(F)F)ccc1NCCCCNS(=O)(=O)c1ccc(Cl)cc1	nt	-4	nt	i	4	-8	2	-12
N#Cc1c2c(c(NCCOCCO)n3c1nc1ccccc13)CCCC2	-14	-9	-7	i	0	4	-3	-5
O=C(NCCCOc1cccc(CN2CCCCC2)c1)c1ccc(Cl)c(Cl)c1	nt	-10	-1	i	-5	6	3	-4
CC(=O)Nc1cccc(-n2nnc(SCC(=O)c3ccccc3)n2)c1	-6	nt	-27	i	-6	-3	-1	-2
COCCCNC(=O)[C@@H](Cc1ccccc1)NC(=O)CC[C@H]1O[C@@H](n2ccc(=O)[nH]c2=O)[C@H](O)[C@@H]1O	nt	1	29	nt	nt	nt	0	6
CS(=O)(=O)NCc1nnc(SCc2ccccc2C(F)(F)F)o1	16	nt	nt	nt	-2	4	-2	3
CCc1ccc2oc(-c3cc(N)ccc3O)nc2c1	12	-22	nt	i	4	11	2	0
CCS(=O)(=O)Nc1ccc(Cc2ccncc2)cc1	21	-24	-30	i	4	5	0	2
O/N=C(/c1ccccc1)c1cc2cc(Br)cc(Br)c2o1	9	-11	0	i	-1	-16	6	2
Cc1cccc(N(CC(=O)NC(C)(C)C)C(=O)CS(=O)CC(=O)Nc2ccc3c(c2)OCO3)c1 (configuration not stated)	2	nt	8	i	5	-6	3	5
CCOC(=O)c1ccc(N2C(=O)CC(NNC(=O)c3ccc(Br)s3)C2=O)cc1 (configuration not stated)	-3	14	-18	i	-2	2	3	4
COc1cccc(-c2nc(NCc3cccnc3)c3ccccc3n2)c1O	-8	-13	1	i	-1	5	5	5
O=C(NCCCN1CCCCCC1)C1CCCN(S(=O)(=O)c2cccc3nsnc23)C1 (configuration not stated)	-3	nt	0	i	0	4	7	-2
N#CCC(=O)NNC(=S)NC(=O)C(c1ccccc1)c1ccccc1	-4	nt	-2	i	-6	14	7	5
CCOC(=O)c1cc[nH]c1C	-8	nt	11	i	-9	-6	0	3
COCCOC(=O)C1=C(C)NC(=O)NC1c1ccco1 (configuration not stated)	-15	-10	1	i	27*	58*	1	0	eIF4H inh retest=53*;PABP polyA inh retest=52*
COc1ccc(CCN2CC(C(=O)O)CC2=O)cc1OC (configuration not stated)	4	50	-15	i	3	6	1	2
COc1ccc(CC(=O)Nc2ccc3c(c2)C(=O)N(CCC(=O)O)C3=O)cc1	-10	-16	10	i	5	4	0	1
COc1ccc(NC(=O)Nc2nnc(-c3ccccc3SCc3ccccc3)s2)cc1	17	-9	nt	i	-11	6	1	0
COCCNC(=O)C1(C)CCCN(C(=O)c2ccc3c(c2)CCO3)C1 (configuration not stated)	nt	-17	59*	nt	nt	nt	3	10
CCn1c(CNC(=O)c2ccccc2F)cc2cc(C)ccc21	-9	-24	-18	i	1	6	-2	-3
Cc1ccccc1C(=O)NCC(=O)c1ccccc1	18	-7	-15	i	nt	nt	2	1
CC(C)C[C@@H](CNCC(=O)[C@H](Cc1ccccc1)NC(=O)c1[nH]cnc1C(=O)N[C@H](CN)CC(C)C)NC(=O)c1nc[nH]c1C(=O)N[C@@H](CC(=O)O)C(=O)O	nt	22	35	nt	nt	nt	2	4
Nc1ccn(C2OC(CCl)C(O)C2O)c(=O)n1 (configuration not stated)	nt	-4	-289	nt	nt	nt	-6	-4
CCCS(=O)(=O)NCCc1csc(-c2ccc(OC)c(OC)c2)n1	-10	1	5	i	-2	12	1	4
CCN1CCN(Cc2c(O)ccc3c2O/C(=C\C=C\c2ccccc2)C3=O)CC1	7	nt	-70	i	1	54	-41	-24	eIF4H inh retest=-3;PABP polyA inh retest=-4
Cc1cc(C)cc(NC(=O)NC2CCN(CC(=O)Nc3cccc(Cl)c3C)CC2)c1	0	-15	24	i	-12	-4	7	-10
Later entries:
SMILES	CSC inhib	UUG fidelity	Env fusion inh	Rce1 inh	PABP polyA inh	eIF4H inh	MT1-MMP act inh	MT1-MMP act inh RFP	others
O=C(COc1ccccc1/C=C\c1[nH]c(=O)[nH]c(=O)c1[N+](=O)[O-])Nc1ccccc1	-2	nt	20	nt	6	4	-1	-3
O=C(NNC(=O)c1ccc(Cl)s1)c1csc(N2CCOCC2)n1	-10	nt	-20	i	nt	nt	-3	-1
CCOc1ccc(NS(=O)(=O)c2ccc(C(=O)NCC(c3ccc(OC)cc3)N3CCCC3)cc2)cc1 (configuration not stated)	nt	2	1	i	nt	nt	0	2
Cc1nnc2c(NCC(C)c3ccccc3)nc3ccccc3n12 (configuration not stated)	0	0	11	i	0	-9	12	-2
Cc1[nH]c(=O)[nH]c(=O)c1/C=N/NC(=O)CCNC(=O)OC(C)(C)C	0	-17	-9	i	0	5	3	5
Cc1c(C(=O)NNC(=S)Nc2ccc(S(N)(=O)=O)cc2)oc2ccccc12	11	-23	-5	i	6	18	-3	1
COC(=O)c1cc(NS(=O)(=O)c2ccc(C(C)C)cc2)ccc1N1CCOCC1	-11	nt	7	i	17	17	3	-5
CCn1nnnc1-c1ccc(OC)c(S(=O)(=O)Nc2ccc(C(=O)OC)cc2)c1	0	0	-19	i	2	-4	2	1
O=C(COC(=O)c1ccc(NS(=O)(=O)c2ccc3c(c2)OCCO3)cc1)NCC1CCCO1 (configuration not stated)	-5	-8	-25	i	-7	-9	6	6
CC1CCCC(C)N1/N=C/c1ccc(C(=O)O)cc1 (configuration not stated)	3	-2	-11	i	1	-4	5	4
Nc1ccc(C(=O)N2CCN(S(=O)(=O)/C=C/c3ccccc3)CC2)cc1[N+](=O)[O-]	4	3	7	i	nt	nt	3	-4
COc1cc(OC)cc(-n2nnnc2SCC(=O)NCc2ccc3c(c2)OCO3)c1	16	-3	nt	i	-14	-2	-2	-2
COc1ccccc1C(CNC(=O)c1ccco1)N1CCCC1 (configuration not stated)	-9	-5	nt	nt	nt	nt	-3	0
C#CCOCCOCCOCCNc1nc(N2CCN(C(=O)[C@H](C(C)C)n3cc(CCO)nn3)CC2)nc(N2CCN(C(=O)[C@H]([C@@H](C)CC)n3cc(CCC(=O)O)nn3)CC2)n1	nt	17	-10	nt	nt	nt	-4	4
COc1ccc(Nc2nc(-c3ccccc3)nc3ccccc23)cc1	73	7	2	i	2	13	-2	-7
Cc1cn(C(=O)c2ccccc2)c(=S)n1-c1ccc(Br)cc1	19	-6	9	i	-3	8	-1	-4
Cc1ccc(NS(=O)(=O)c2c(C)[nH]c(C)c2C(=O)N2CCCCC2)cc1Cl	0	-2	1	i	2	1	-3	2

Screens (PubChem)
